# B2AR ag: beta2AR agonists driving receptor internalization, primary screen, cell-based, FAP fluorogen, flow cytometry. Beta-2 adrenergic receptor (Homo sapiens), P07550. AID 504454, 2011. actives 0.43% (n = 340,000). Am2.2-beta2AR cells; reference of the scale not given here. response, % (concentration not given with the values);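 active = response above a set limit, near 3 SD of response in nonfluorescent compounds, cut at about 42% in these data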;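 also: stock transfer was 100 nL into about 11 µL; a reference agonist was the positive control; negative values mostly stem from fluorescent compounds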
# Target sequence (P07550 whole entry, looked up): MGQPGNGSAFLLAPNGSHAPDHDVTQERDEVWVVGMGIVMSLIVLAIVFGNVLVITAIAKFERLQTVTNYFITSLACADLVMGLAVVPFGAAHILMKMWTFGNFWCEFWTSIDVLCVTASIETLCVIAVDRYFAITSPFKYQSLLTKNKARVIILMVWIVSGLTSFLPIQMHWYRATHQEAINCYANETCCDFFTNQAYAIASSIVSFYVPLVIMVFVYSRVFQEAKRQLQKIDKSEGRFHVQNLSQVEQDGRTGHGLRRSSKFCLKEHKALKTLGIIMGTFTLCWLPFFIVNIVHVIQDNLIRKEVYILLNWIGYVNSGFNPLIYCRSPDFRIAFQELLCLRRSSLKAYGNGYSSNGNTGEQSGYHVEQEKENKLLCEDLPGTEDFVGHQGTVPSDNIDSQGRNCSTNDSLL
# E coli growth: E. coli growth inhibition, primary screen, OD600; actives 0.21% (n = 330,000); OD600 absorbance (test concentration not listed); Escherichia coli growth, 23 h; active compounds read low; AID 1053175, 2014;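 active = OD600 absorbance below the run mean of sample wells minus 3.6 SD, in any replicate, cut at about 0.56 in these data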;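 also: stock transfer was 300 nL into about 60 µL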
# UCH37 DUB inh: inhibitors of human UCH37 deubiquitinase, primary screen, biochemical, Ub-AMC cleavage, fluorescence; Ubiquitin carboxyl-terminal hydrolase isozyme L5 (Homo sapiens), Q9Y5K5; purified proteasome/UCH37; inhibition, % (test concentration not listed); actives 0.33% (n = 330,000); AID 588478, 2011;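 active = mean of two replicates above 20%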;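 also: 0% = compound-free wells with enzyme and 100% = wells lacking proteasome; stock transfer was 100 nL into about 20 µL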
#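 System: Proteasome-associated human UCH37 deubiquitinase; Input: 0.15 nM proteasome in added enzyme buffer; Also added: Ub-AMC substrate from 1 µM stock; Incubation: 30 min compound-proteasome preincubation then 25 min substrate reaction, room temperature; Detection: fluorescence, ex 355 nm, em 460 nm; Read-out: % inhibition of Ub-AMC cleavage fluorescence; Benchmarks: no-proteasome and no-compound wells.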
# HNF4A DNA FP: change in binding of human HNF4A to DNA, primary screen, biochemical, fluorescence polarization, FITC-DNA; Hepatocyte nuclear factor 4-alpha (Homo sapiens), P41235; actives 0.3% (n = 360,000); 1 h; activity change, % at 10 µM; in the data active = activity change above about 30%, passing the limit was not always enough;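 also: controls were the assay level and a saturating level of protein; the project sought stronger binding though the title names inhibitors; some compounds called inactive have numbers as strong as hits; positive values seem to mean higher polarization but the record does not say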
# Target sequence (P41235 whole entry, looked up): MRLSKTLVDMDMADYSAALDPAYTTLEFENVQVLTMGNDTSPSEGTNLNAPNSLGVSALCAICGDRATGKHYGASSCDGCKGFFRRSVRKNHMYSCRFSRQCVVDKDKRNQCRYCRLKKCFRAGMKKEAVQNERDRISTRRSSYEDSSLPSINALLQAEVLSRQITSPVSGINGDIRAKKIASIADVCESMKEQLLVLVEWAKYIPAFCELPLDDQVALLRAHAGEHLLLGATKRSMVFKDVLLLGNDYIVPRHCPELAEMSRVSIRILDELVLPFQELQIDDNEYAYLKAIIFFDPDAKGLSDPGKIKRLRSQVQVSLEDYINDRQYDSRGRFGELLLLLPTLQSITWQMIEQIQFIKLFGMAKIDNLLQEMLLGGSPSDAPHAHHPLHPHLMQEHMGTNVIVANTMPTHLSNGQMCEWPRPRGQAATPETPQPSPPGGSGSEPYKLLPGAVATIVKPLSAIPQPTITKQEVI
# ALR H2O2 inh: inhibitors of human ALR sulfhydryl oxidase, primary screen, biochemical, H2O2 detection, HRP-luminol luminescence, single point; inhibition, % (no concentration beside the values); actives 3.8% (n = 290,000); purified ALR, DTT oxidation; FAD-linked sulfhydryl oxidase ALR (Homo sapiens), P55789;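 active = mean and each replicate at 75% or more; inconclusive = only one of the two met; inactive = neither met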;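 also: stock transfer was 7.5 nL into about 7.5 µL; 0% = neutral wells and 100% = wells with inactivated enzyme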
# FGF22 binding: binders of human FGF22 protein, primary screen, FGF22 synaptogenesis inhibitor project, biophysical, thermal shift, single point; calls only at 9.99 µM; actives 1.5% (n = 340,000); recombinant FGF22 thermal shift, SYPRO orange fluorescence; percent of sucrose octasulfate shift, DMSO zero; Fibroblast growth factor 22 (Homo sapiens), Q9HCT0;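 active = melting point raised past a set limit in the mean and every replicate; inconclusive = no clear call; three in four hits are not shown here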
# Target sequence (Q9HCT0 whole entry, looked up): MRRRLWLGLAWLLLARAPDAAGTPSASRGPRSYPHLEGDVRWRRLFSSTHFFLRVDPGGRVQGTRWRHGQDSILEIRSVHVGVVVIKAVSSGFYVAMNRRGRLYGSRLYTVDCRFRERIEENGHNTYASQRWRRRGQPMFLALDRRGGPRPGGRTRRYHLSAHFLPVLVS
# LANA-H2B inh: blockers of LANA interaction with H2A/H2B – biochemical, FP readout, HTS, primary screen. cell-free LANA-H2A/H2B peptide, fluorescence polarization. Protein LANA1 (Human herpesvirus 8 type P (isolate GK18)), Q9QR71. inhibition, % (concentration not given with the values). actives 0.6% (n = 320,000). AID 2629, 2010; in the data active = inhibition mostly above about 10%, no sharp cut-off; inactive = mostly below about 6.7%;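 also: stock transfer was 7.5 nL into about 10 µL; 0% = median of vehicle wells and 100% = median of positive control wells; one replicate is shown; the record names a cut of 25% in any replicate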
# * = called active by the depositor; i = inactive; ? = inconclusive; / = not tested or not shown; + = active, no number.
SMILES,B2AR ag,E coli growth,UCH37 DUB inh,HNF4A DNA FP,ALR H2O2 inh,FGF22 binding,LANA-H2B inh
Cn1cc(C(CO)Cc2ccccc2)c2ccccc21 (centres undefined),6.9,0.666,0.8,-0.7,?,i,0.9
Clc1cccc(-c2ccc(C=Nc3ccc(N4CCOCC4)cc3)o2)c1,7.7,0.662,1.4,7.0,62.0,/,-4.7
CC(=O)c1cccc(S(=O)(=O)NCC2CCCCC2)c1,-3.0,0.698,4.3,-2.2,-2.1,/,-3.1
COc1ccc(CSc2nnc(-c3ccncc3)n2N)cc1,-0.5,0.649,3.6,3.5,1.7,i,5.1
CCc1c(C)c(C#N)c2nc3ccccc3n2c1NCc1ccccn1,-11.9,0.672,-77.1,6.0,-15.6,i,0.9
COc1ccc(OC)c(NC(=O)COC(=O)COc2c(Cl)cc(Cl)c3ccc(C)nc23)c1,-5.7,0.646,0.5,2.7,-6.3,i,0.0
COc1c(Cl)ccc(Cl)c1C(=O)NCc1ccco1,5.3,0.716,5.6,4.4,/,i,-1.7
CC(/C=N/NC(=O)CCn1nnc2ccccc21)=C\c1ccccc1,-3.3,/,/,2.7,-4.3,i,0.6
O=C(c1ccc(Cl)cc1)c1cccc(O)c1,-9.3,/,/,0.5,/,i,/
CCOC(=O)c1ccccc1NC(=O)CSc1ccc(-c2ccccn2)nn1,6.2,0.696,0.4,2.4,0.4,i,1.8
CC1CC(C)CN(C(=O)c2ccc(S(=O)(=O)N3CCCC3)cc2)C1 (centres undefined),2.9,0.705,-0.4,-0.4,2.9,i,-3.9
O=[N+]([O-])c1ccc2nc(-c3ccccc3)oc2c1,-1.9,0.632,3.1,0.2,-14.9,i,5.2
CC(=O)NCCC(=O)Nc1nc(-c2ccc3ccccc3c2)cs1,-0.1,0.654,3.2,0.5,/,i,/
Cc1c(N(C)C(=O)COc2ccc3ccccc3c2)c(=O)n(-c2ccccc2)n1C,28.3,0.669,1.4,-1.2,-13.4,i,-6.9
CCOC(=O)c1c(C)n(CC(O)c2ccccc2)c2ccc(O)cc12 (centres undefined),-4.5,0.666,1.8,-1.5,-11.8,/,-1.8

# Next part (two carried over from the part before).
SMILES,B2AR ag,E coli growth,UCH37 DUB inh,HNF4A DNA FP,ALR H2O2 inh,FGF22 binding,LANA-H2B inh
Cc1c(N(C)C(=O)COc2ccc3ccccc3c2)c(=O)n(-c2ccccc2)n1C,28.3,0.669,1.4,-1.2,-13.4,i,-6.9
CCOC(=O)c1c(C)n(CC(O)c2ccccc2)c2ccc(O)cc12 (centres undefined),-4.5,0.666,1.8,-1.5,-11.8,/,-1.8
Cc1ccc(/C=C/C(=O)OC(C)C(=O)Nc2ncc(Cl)cc2Cl)o1 (centres undefined),-5.0,0.732,-4.3,-1.4,57.8,/,4.6
COC(=O)C1=C[C@@H](C(=O)OC)[C@@H]2C3=C(C(=O)[C@@]2(C)NC(=O)c2ccccc2)[C@H](c2ccccc2)n2c(=O)n(-c4ccccc4)c(=O)n2[C@@H]3C1,/,/,1.1,/,-20.8,/,2.3
c1ccc(C(c2ccccc2)c2nc(-c3cccnc3)no2)cc1,-5.2,0.711,2.9,-4.7,/,i,-3.2
CCOc1ccc(CCNC(=O)c2ccc(CS(=O)Cc3ccc(Cl)cc3)o2)cc1 (centres undefined),3.9,0.692,3.9,3.5,0.3,i,-0.2
CCOC(=O)N1CCN(C(=O)COC(=O)Cc2ccc(Cl)cc2)CC1,-4.8,0.648,6.7,-3.2,-6.5,i,2.0
Cc1ccc(NC(=S)NCCSc2ccc(Cl)cc2)c(C)c1,8.4,0.695,1.5,2.3,-1.8,i,5.2
Cc1cccc(N2CCN(Cc3ccc(Br)o3)CC2)c1C,-14.0,0.641,4.4,1.6,/,i,-4.8
CSc1ccc(C(=O)C2CCCN(C(=O)c3cccnc3SC)C2)cc1 (centres undefined),-6.6,0.646,4.8,-5.0,/,i,-0.9
CC(C)C(=O)Nc1nnc(SCC(=O)NCC2CCCO2)s1 (centres undefined),-7.3,0.659,-0.8,0.9,-5.3,i,-3.0
COc1ccc(S(=O)(=O)N2CCC(C(=O)Nc3ccc(OC)c(OC)c3)CC2)cc1C,6.2,0.743,4.3,-4.1,-0.4,/,9.2
CC(C)C[C@H](NC(=O)N1CC(=O)Nc2ccccc21)C(=O)N1CCC[C@H]1C(=O)O,4.1,0.79,-0.9,0.2,-4.5,i,4.5
Cc1cc(C(=O)NCc2ccc(C(=O)O)o2)c(C)o1,-9.0,0.746,3.4,-18.3,-0.4,i,2.2
C[C@H](CO)N1C[C@H](C)[C@@H](CN(C)C(=O)Nc2ccc3c(c2)OCO3)Oc2ccc(NC(=O)CCC(F)(F)F)cc2C1=O,2.2,/,2.0,-3.8,1.0,i,-3.7
COc1ccc(N2CCN(C(=O)C3CCCN(S(=O)(=O)c4c(C)noc4C)C3)CC2)cc1 (centres undefined),-1.4,0.642,7.6,0.1,48.7,i,5.9
CC(Oc1ccc(Cl)cc1)C(=O)NCCCn1ccnc1 (centres undefined),19.7,0.672,3.8,9.5,-1.0,/,1.0
COc1ccc(C2CC(c3ccc4ccccc4c3)=NN2C(=O)CN2CCC(C(N)=O)CC2)cc1 (centres undefined),10.9,0.708,0.1,1.1,/,i,/
Cc1ccc([C@@H]2CC=C(C(=O)O)[C@H](c3ccc(Br)cc3)N2S(=O)(=O)c2ccc(C)cc2)cc1,2.3,0.669,6.7,2.7,/,i,/
CC1(C)CC(=O)C(C2(O)C(=O)N(Cc3ccccc3)c3ccccc32)CO1 (centres undefined),-0.9,0.66,0.1,2.7,-2.9,/,1.2
COc1ccc2[nH]cc(CCNC(=O)Cc3c(F)cccc3Cl)c2c1,-9.2,0.674,-2.0,2.0,-0.1,i,2.3
C1CCC(NC2=NCCC2)CC1,-4.2,0.666,-0.3,-2.0,-4.2,/,-9.2
CC(Oc1ccc(Cl)cc1Cl)C(=O)NNC(=O)c1cccnc1 (centres undefined),-0.4,0.676,5.2,-0.9,-2.2,i,1.3
C(=C\c1ccccc1)/CN1CCN(Cc2ccc3c(c2)OCO3)CC1,0.8,0.629,-0.3,-2.5,-3.5,i,1.8
CC(C)(C)c1nn(-c2ccccc2)c2[nH]c(=O)c(C=O)cc12,55.4*,0.707,4.3,3.3,14.1,/,-1.5
Cc1ccc(CCN2CC(C(=O)NC3CCCCC3)CC2=O)cc1 (centres undefined),-1.9,0.686,1.3,-4.8,9.0,i,22.5*
O=S(=O)(Nc1ccccn1)c1cc(Cl)ccc1Cl,7.0,0.683,1.0,-0.1,-15.7,i,2.1
CCCN1CCN(C(=O)c2oc3ccccc3c2NC(=O)COc2ccc(OC)cc2)CC1,9.6,0.708,-11.7,2.4,1.1,i,-0.9
O=C(O)c1cc2ccccc2c(=O)s1,-2.5,0.689,3.3,0.6,2.9,/,3.6
O=C(NCCOC(=O)c1ccc(C(=O)OCCNC(=O)c2ccccc2)o1)c1ccccc1,2.4,0.707,0.4,1.2,0.1,/,-6.2
O=C1c2cccnc2C(=O)N1Cc1ccc(Cl)cc1,-4.8,0.696,-0.5,-0.4,/,/,-3.3
CCS(=O)(=O)C(C)(CCl)C(=O)Nc1ccc(C(=O)OC)cc1 (centres undefined),-5.5,0.711,5.5,1.3,-7.0,i,-1.6
COc1ccc(NC(=O)c2cc(F)cc(F)c2)cc1Cl,-4.4,0.722,1.3,-6.2,-2.7,/,-5.7
CCC1C(=O)N=C(SCC(=O)Nc2ccc(Br)cn2)NC1=O (centres undefined),-2.4,0.694,10.5,4.7,98.6*,i,-0.2
COC1OC2COC(c3ccccc3)OC2C(=O)C1NC(=O)c1ccccc1 (centres undefined),-9.8,/,/,-1.7,/,i,/
CCn1cc([N+](=O)[O-])c(C(=O)N2N=C(c3ccc4ccccc4c3)CC2c2ccccc2O)n1 (centres undefined),2.4,0.75,4.7,-0.7,-3.7,/,-0.4
CCOc1ccc(-c2nnn(CC(=O)NCc3ccc4c(c3)OCO4)n2)cc1,6.0,0.675,-0.5,-2.3,4.8,/,2.3
Cc1ccccc1-c1noc(-c2ccc(O)cc2)n1,-27.1,0.605,5.0,-1.9,-3.4,i,-3.1
O=C(Nc1nnc(Cc2ccc([N+](=O)[O-])cc2)s1)c1ccc2c(c1)OCO2,-2.7,0.696,-0.5,4.2,-5.5,i,2.7
CCN(c1cccc(C)c1)S(=O)(=O)c1ccc2c(c1)CCCN2C(C)=O,-10.2,0.64,1.5,3.3,-4.4,/,0.5
Cc1c(C(=O)NCc2nnc(-c3ccccc3)o2)oc2c(F)cccc12,-8.2,/,/,0.9,-10.0,i,-1.5
C#CCOCCOCCOCCNc1nc(N2CCN(C(=O)[C@H](CCC(=O)O)n3cc(C(N)Cc4ccc(O)cc4)nn3)CC2)nc(N2CCN(C(=O)[C@H](CCC(=O)O)n3cc(C(N)Cc4ccc(O)cc4)nn3)CC2)n1 (some centres undefined),/,/,4.0,/,/,i,-4.5
Cc1cccc(-n2ncc3c(NCc4ccc5c(c4)OCO5)ncnc32)c1,1.1,0.693,0.6,2.2,1.6,/,0.3
COc1ccc(NC(=O)CSc2nc(N)c(NC(=O)c3cccs3)c(=O)[nH]2)cc1,13.6,0.725,1.2,0.3,1.7,i,4.1
COC(=O)CN1C(=O)N/C(=C/c2cc(Cl)c(OC)c(OC)c2)C1=O,7.7,0.686,2.2,-2.4,-2.3,i,1.0
Cc1ccccc1C(=O)Nc1c(C)[nH]c(=O)[nH]c1=O,1.1,0.697,4.3,1.7,-87.9,i,-1.1
CC12CCC(C(=O)Nc3cccc(Cl)c3)(C(Br)C1=O)C2(C)C (centres undefined),11.7,0.696,3.5,-1.1,-2.4,i,0.0
Cc1ccc(-c2nc3cnccn3c2Nc2ccc3c(c2)OCCO3)o1,-1.2,0.692,-30.9,-0.2,99.1*,/,3.0
O=C(Nc1cccc(Oc2ccc(C(=O)O)c(C(=O)O)c2)c1)c1ccc(-c2ccccc2)cc1,-0.5,0.724,6.2,-12.9,/,i,-0.7
Cc1cc(=O)n2[nH]c(SCc3c(F)cccc3Cl)nc2n1,1.1,0.673,3.5,1.1,/,i,-6.2
CC(C)(C)/C(O)=C/c1nc2cc(Cl)ccc2oc1=O,7.8,/,/,-3.3,13.4,i,0.8
CC(C)NC(=S)N/N=C/c1ccc2c(c1)OCCO2,-1.7,/,/,-1.6,25.9,i,0.2
CCc1ccc(C(=O)NNC(=S)Nc2ccc(S(N)(=O)=O)cc2)s1,-1.5,/,/,-4.0,?,+,0.5
COc1ccc(Cl)cc1NC(=O)c1ocnc1C,-1.1,0.698,2.1,0.4,0.6,i,17.7*
Cc1cc(NC(=O)Cc2ccccc2)nc2c1c(=O)oc1ccccc12,-4.5,0.726,0.9,3.0,/,i,-1.3
COc1cc(NC(=O)Nc2c(C)n(C)n(-c3ccccc3)c2=O)cc(OC)c1OC,-6.6,0.708,3.9,1.9,4.0,i,1.4
O=C(CC(SCCO)c1ccc(F)cc1)c1ccco1 (centres undefined),1.8,0.681,0.5,1.1,88.6*,/,2.9
N#Cc1cnc2cc(-c3ccccc3)nn2c1N,2.1,0.652,-14.4,-3.2,-3.3,/,7.7
CCOc1ccc(-n2c(SCC(=O)Nc3ccc4c(c3)OCCO4)nc3c(c2=O)SCC3)cc1,-11.3,0.737,2.2,0.7,-30.8,/,2.0

# Some of the compounds tested; rates above refer to the full screens.
